VDR inh = Inhibitors of the vitamin D receptor (VDR): qHTS; Vitamin D3 receptor (Homo sapiens), P11473; VDR-SRC2-3 peptide fluorescence polarization, 2 h; Potency, µM, for the others: max response, negative = inhibition, most hits filed as inhibitors; 400,000 compounds, 0.93% hits; AID 504847, 2011; active = well fitted inhibition curve with a large enough effect; inconclusive = small, poorly fitted or top-dose-only effect, or another doubt; inactive = no such curve, though single readings can be large or run the other way; note: series mostly up to about 120 µM
Target sequence (P11473 whole entry, looked up): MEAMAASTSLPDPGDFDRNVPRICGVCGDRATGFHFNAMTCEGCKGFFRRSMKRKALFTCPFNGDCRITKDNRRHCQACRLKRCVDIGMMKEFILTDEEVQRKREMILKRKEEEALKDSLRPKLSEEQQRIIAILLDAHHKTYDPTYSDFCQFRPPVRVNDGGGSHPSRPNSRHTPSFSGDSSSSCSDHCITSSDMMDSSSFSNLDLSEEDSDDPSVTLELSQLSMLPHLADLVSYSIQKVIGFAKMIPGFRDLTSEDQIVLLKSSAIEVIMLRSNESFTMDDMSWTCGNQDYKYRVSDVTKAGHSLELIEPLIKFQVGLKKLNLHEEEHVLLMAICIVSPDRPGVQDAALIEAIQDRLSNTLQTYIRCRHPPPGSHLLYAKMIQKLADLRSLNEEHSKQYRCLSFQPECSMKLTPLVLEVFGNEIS
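FP read-out; VDR + SRC2-3 coactivator peptide; 23 nl compound by pintool; 2 h RT incubation; reagents held at 4 deg C, protected from light.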
An asterisk follows results filed as active; ? = inconclusive; & = joins results of further samples. % is set by controls: 0 for no effect and ±100 for the full control effect; potency is the fitted concentration of half-maximal effect. The list is partial, so the mix of outcomes need not match the whole.

SMILES	VDR inh
O=C(NNC(=O)c1nn(-c2ccc(F)cc2)ccc1=O)c1ccccc1Cl	-7%
CN1C(=O)[C@@H]2[C@@H]3C[C@@H]([C@H]4ON=C(c5ccccc5OCC#N)[C@@H]34)[C@@H]2C1=O	-4%
Cn1c(CC(=O)Nc2ccc(Cl)c(Cl)c2)nnc1SCC(=O)NCc1ccccc1	11%
CCOc1ccc(N(CC(=O)Nc2ccc(C)cc2)S(C)(=O)=O)cc1	?
N=P(N1CCOCC1)(N1CCOCC1)C12CC3CC(CC(C3)C1)C2	-2%
CCOC(=O)c1cc(NC(=O)CC(C)(C)CC(=O)O)ccc1N1CCCCC1	-21%
OC(CN1CCN(Cc2ccccc2)CC1)c1ccc(Br)cc1 (stereo not given)	-5%
S=C(Nc1ccc(Cl)cc1)NN1CCOCC1	-16%
COc1cccc(NC(=O)Cn2c(=O)n(Cc3ccc(F)cc3)c(=O)c3sc4ccccc4c32)c1	-10%
CCOC(=O)C(CCC(=O)O)(CCC(C)C)c1csc(N)n1 (stereo not given)	8%
Cc1cc(Br)ccc1SCC(=O)OCC(=O)NC1CC1	-18%
Cc1cc(C)cc(N(CCC(=O)O)S(=O)(=O)c2ccc3ccccc3c2)c1	-22%
CCS(=O)(=O)c1ncc(N(Cc2ccco2)Cc2sccc2C)c(C(=O)Nc2ccc(C)cc2C)n1	9%
C=CCOC(=O)CCCC(=O)NC1CCCCC1	3%
O=C(NCc1ccco1)C(=O)NCC1OCCN1C(=O)c1ccc(Cl)cc1 (stereo not given)	5%
O=C(O)c1nn(-c2ccccc2)c(-c2ccccc2)c1C(=O)c1ccccc1	11%
COc1cccc(CNC(=O)c2ccc3nc(N4CCCCC4)sc3c2)c1OC	3%
COc1ccc2c(c1)CCCN2C(N)=Nc1ccc(Cl)cc1	2%
COc1ccc(NC(=O)Nc2cc(NC(=O)Nc3ccc(OC)cc3)c(C)nc2C)cc1	11%
O=C1SC(c2ccccc2)=C/C1=C\N1CCCCC1	6%
O=C(CN1C(=O)NC2(CCCCCC2)C1=O)N1CCN(S(=O)(=O)c2ccc(Cl)cc2)CC1	10%
Cc1ccc(-n2nc(CN3CCOCC3)c(-c3ccccc3)c2N)c(C)c1	6%
COC/C=C/C1=CC2=CC(=O)C(C)(OC(=O)c3cnc4ccccc4n3)C(=O)C2=CN1Cc1ccc(OC)cc1 (stereo not given)	-17%
COc1ccc(OC)c(/C=N/NC(=O)Cc2nc3ccccc3[nH]2)c1	-6%
Cc1ccc(Cl)cc1N1CCN(S(=O)(=O)c2ccc3[nH]c4c(c3c2)CCCCC4)CC1	18%
COc1ccc(CNC(=S)N2CCN(Cc3ccccc3)CC2)cc1	-9%
COc1ccc(OC)c(NC(=O)Cn2cnc3c(cnn3-c3ccccc3)c2=O)c1	7%
CSc1nnc(-c2ccc(S(=O)(=O)N3CCOCC3)cc2)n1C	-5%
O=C(COc1ccc(F)c(Cl)c1)N1CCCCCCC1	-2%
COc1ccccc1C(O)P(=O)(OC(C)C)c1ccc(N(C)C)cc1 (stereo not given)	4%
C=CCOc1c(Cl)cc(CNc2ccc3[nH]c(=O)[nH]c3c2)cc1OC	0%
Cc1ccc(Nc2ccc3cc(S(=O)(=O)N4CCC(C)CC4)ccc3n2)c(Cl)c1	14%
CN(c1ccccc1)S(=O)(=O)c1ccc(Cl)c(C(=O)OCC(=O)NCc2ccco2)c1	18%
C=CCc1ccc(OCCCCN2CCC(C)CC2)c(OC)c1	-28%
Cc1nc2sc(C(c3ccc(C(C)C)cc3)N3CCN(CCO)CC3)c(O)n2n1 (stereo not given)	-5%
O=C(Cn1cccc1C(=O)c1ccccc1)NCc1ccccc1Cl	-16%&5%
Cc1cc([N+](=O)[O-])ccc1NC(=O)c1cncc(Br)c1	11%
O=C(COC(=O)CCc1nc2ccccc2s1)NCc1ccco1	-3%
C=CCn1cnc2c(nnn2-c2ccc(C)c(Cl)c2)c1=O	?
COc1ccc(/C=C/C(=O)NC(=S)NNC(=O)c2cccs2)cc1	3%
COc1cccc(C2=CC(c3cccc(OC)c3OC(F)F)n3nnnc3N2)c1 (stereo not given)	6%
CCOc1ccc(NC(=O)C[n+]2ccccc2)cc1	-15%
CC(=O)N1CCC(N(C(=O)Nc2ccc(C)c(F)c2)C(C)C)CC1	1%
CC(=O)c1ccc(N2CCN(S(=O)(=O)c3ccc4c5c3CC(=O)N5CC(C)S4)CC2)cc1 (stereo not given)	-14%
COc1ccccc1Oc1ccc(S(=O)(=O)N2CCOCC2)cc1S(=O)(=O)N1CCOCC1	-6%
O=C(Nc1ccccc1C(=O)OCc1cc(=O)n2ccsc2n1)c1cccc(F)c1	-6%
CCCC1NC(=S)N(C2CCCCC2)C1=O (stereo not given)	-3%
CCCNC(=O)c1nnsc1S(=O)c1ccc(Cl)cc1 (stereo not given)	?
Cc1nc2ccccc2c(=O)n1/N=C/c1ccccc1Cl	-12%
C=CCN1C(=O)CSC1=Nc1cccc(O)c1	-10%

An excerpt from above in order of length of the SMILES, descending.
SMILES	VDR inh
CC(=O)c1ccc(N2CCN(S(=O)(=O)c3ccc4c5c3CC(=O)N5CC(C)S4)CC2)cc1 (stereo not given)	-14%
COc1ccccc1Oc1ccc(S(=O)(=O)N2CCOCC2)cc1S(=O)(=O)N1CCOCC1	-6%
O=C(Nc1ccccc1C(=O)OCc1cc(=O)n2ccsc2n1)c1cccc(F)c1	-6%
COc1cccc(C2=CC(c3cccc(OC)c3OC(F)F)n3nnnc3N2)c1 (stereo not given)	6%
CC(=O)N1CCC(N(C(=O)Nc2ccc(C)c(F)c2)C(C)C)CC1	1%
Cc1nc2ccccc2c(=O)n1/N=C/c1ccccc1Cl	-12%
CCCC1NC(=S)N(C2CCCCC2)C1=O (stereo not given)	-3%

The listing continues:
SMILES	VDR inh
CCN(CC)S(=O)(=O)c1ccc(NC(=O)CO/N=C(\N)c2ccccc2)cc1	-9%
Cc1ccc(S(=O)(=O)N2CCCC2C(=O)OCc2ccccc2)cc1 (stereo not given)	-2%
COc1ccc(NS(=O)(=O)c2ccc(NC(=O)C3CCCO3)cc2)cc1 (stereo not given)	2%
CN(C1(C)CCS(=O)(=O)C1)S(=O)(=O)c1cccc([N+](=O)[O-])c1 (stereo not given)	6%
Cc1nc(NC(=O)c2ccc3c(c2)OCCO3)ccc1Br	-24%
O=C(NCc1cccnc1)/C(=C/c1ccco1)NC(=O)c1ccccc1	-7%
CC(=O)Nc1ccc(S(=O)(=O)c2ccc(C)cc2)cc1	-10%
O=C(NCCc1ccccc1)c1cccc(NC(=O)C2CC2)c1	6%
CN(C(=O)c1ccc2c(c1)CCN2S(C)(=O)=O)c1ccccc1	4%
S=c1[nH]nc(-c2ccccn2)n1/N=C/c1ccc(Br)s1	-6%
CCNC(=O)c1ccccc1NC(=O)C1CC(=O)N(C(C)C)C1 (stereo not given)	-30%
O=C(O)c1ccccc1N(Cc1ccccc1)C(=O)COc1ccccc1	2%
CC(=O)N1CCc2c(sc(NC(=O)C3COc4ccccc4O3)c2C(N)=O)C1 (stereo not given)	?
Cc1ccccc1C(=O)Nc1ccc(-c2nc3ccc(C(=O)c4ccccc4)cc3[nH]2)cc1	14%
CN1C(=O)/C(=C\c2cc(Br)cs2)c2ccccc21	-15%
O=C1N/C(=C/c2cccn2-c2ccccc2)C(=O)N1Cc1ccc(F)cc1	1%
O=C(O)C1C2CCC(O2)C1C(=O)Nc1cnn(Cc2ccccc2)c1 (stereo not given)	5%
Cc1cccc(-n2cc(CN3CCN(c4ccccn4)CC3)c(-c3cccc(F)c3)n2)c1	-11%
CC1CC1c1ccc(/C=C(\C#N)C(=O)Nc2cc(Cl)ccc2Cl)o1 (stereo not given)	?
CC1(C)OC(c2ccccc2)=C/C(=C\C=N\NC(=O)c2ccncc2)O1	9%
COc1ccc(C(=O)Nc2cc(=O)n(C)c(=O)n2C)cc1OC	-3%
COc1cc(OC)cc(C(=O)Nc2ccc(S(=O)(=O)Nc3onc(C)c3C)cc2)c1	?
N#Cc1c(N)n(CCOC(=O)c2cccc(Br)c2)c2nc3ccccc3nc12	-5%
CCCN(CCC)CCCNC(=O)c1cn(CC)c2ccc(S(=O)(=O)N3CCOCC3)cc2c1=O	15%
COc1ccc(-n2c(=O)c3sc4ccccc4c3n(C)c2=O)cc1	9%
CS(=O)(=O)N(CC(=O)Nc1ccccc1-c1ccccc1)c1ccc(F)cc1	-4%
COc1cccc(C(C(=O)NC(C)(C)C)N(Cc2ccco2)C(=O)CCC(=O)Nc2cc(C)on2)c1OC (stereo not given)	15%
CCOC(=O)c1c(S(=O)(=O)NCC(=O)Nc2cc(C)ccc2C)c(C)n(C)c1C	2%&4%
CC(C)Oc1ccc(CNCC2(O)CCOC(C)(C)C2)cc1 (stereo not given)	-26%
CC(=O)Nc1ccc(CNc2ncnc3ccc(-c4c(C)noc4C)cc23)cc1	-4%
COc1ccc(C(=O)N2CCC(C(=O)Nc3ccc(C)cc3)CC2)cc1	?
COC(=O)c1ccc(C2=NOC(C)(c3nnc(Cc4ccccc4)o3)C2)cc1 (stereo not given)	-24%
Cc1cc(NC(=O)c2nn(C)c(C)c2[N+](=O)[O-])no1	8%
CCOc1ccc(C(=O)O)cn1	-17%
COc1ccc(NC(=O)c2ccc(C)o2)c([N+](=O)[O-])c1	-14%
CSc1nc2sc3c(c2c(=O)n1-c1ccccc1)CCC(C(C)(C)C)C3 (stereo not given)	-20%
CCC(=O)Nc1ccc(C(=O)Nc2ccc(OC)cc2[N+](=O)[O-])cc1	-2%
Cc1ccc(NC(=O)c2ccccc2-c2ccc(C(F)(F)F)cc2)cc1S(=O)(=O)N1CCOCC1	-4%
CC(C)c1ccc(NC(=O)NC2(C(=O)NCc3cccnc3)CCCCC2)cc1	-17%
O=C(Cn1nnc(-c2ccccc2NC(=O)c2ccco2)n1)Nc1ccccc1	18%
Cc1nc2ccn(Cc3ccccc3)c(=O)c2cc1C(=O)N1CCN(c2ccccc2)CC1	-11%
COc1cccc(NC(=O)CCNC(=O)N2CC(=O)Nc3ccccc32)c1	6%
O=C(c1[nH]nc2c1CCc1ccccc1-2)N1CCN(Cc2ccc3c(c2)OCO3)CC1	8%
O=C(c1ccc2c3n(nc2c1)-c1ccc(Cl)cc1CO3)N1CCCCC1	-15%
O=C(NCc1ccc2c(c1)OCO2)C1CC(=O)N(C2CCCCCCC2)C1 (stereo not given)	4%
Cc1cc(C(=O)Cn2nnc3ccccc3c2=O)c(C)n1-c1ccccc1F	9%
COc1ccc(C)cc1NC(=O)COC(=O)c1c(C)noc1C	14%
CCOC(=O)c1c(NC(=O)c2c(C)noc2C)sc2c1CCCCC2	1%
CC1CCN(C(=O)COC(=O)C2CCN(S(=O)(=O)c3ccc(Cl)c(C(F)(F)F)c3)CC2)CC1	-11%
O=C(Nc1cccc(NC(=O)c2c(F)cccc2F)n1)c1c(F)cccc1F	-17%

More compounds
SMILES	VDR inh
COCCNC(=O)c1cccc(OC2CCN(Cc3ccc(F)cc3OC)CC2)c1	-2%
COc1ccc([N+](=O)[O-])cc1NC(=O)CN(C)S(=O)(=O)c1ccccc1	2%
Cc1cc(C)nc(-n2nc(C)c3c2N(Cc2ccccc2)C(=O)CC3c2ccc(Cl)cc2)n1 (stereo not given)	-3%
NS(=O)(=O)c1ccc(NC(=O)COC(=O)c2cc3ccccc3cc2O)cc1	-12%
CCc1ccccc1NC1c2ccccc2C(=O)N1Cc1ccco1 (stereo not given)	-11%
CCOCCn1c(SCc2cccc(C)c2)nc2c1c(=O)[nH]c(=O)n2C	-6%
COc1cc(OC)c(C(=O)OC(C)C(=O)NCc2ccc3c(c2)OCO3)cc1OC (stereo not given)	5%
C=CS(=O)(=O)N(Cc1ccc(Cl)c(Cl)c1)C[C@@H](O)CO	?
O=C(NNC(=O)c1ccccc1F)c1cccc(-n2cccc2)c1	-20%
CC(C)c1ccc(Nc2c(-c3ccsc3)nc3ccc(Cl)cn23)cc1	12%

Reprinted from the part before: three entries; new compounds follow.
SMILES	VDR inh
C=CS(=O)(=O)N(Cc1ccc(Cl)c(Cl)c1)C[C@@H](O)CO	?
O=C(NNC(=O)c1ccccc1F)c1cccc(-n2cccc2)c1	-20%
CC(C)c1ccc(Nc2c(-c3ccsc3)nc3ccc(Cl)cn23)cc1	12%
Cc1ccc(C)c(S(=O)(=O)N2CCN(C(=O)Cc3sc(C)nc3-c3ccc(F)cc3)CC2)c1	7%
Cc1c(C(=O)N2CCOCC2)sc(NC(=O)Cc2ccccc2)c1C#N	-8%
O=C(c1ccc(COc2ccccc2Br)o1)N1CCN(c2ccccn2)CC1	3%
Cc1ccc(S(=O)(=O)N2CC(=O)Nc3ccccc32)cc1C	-7%
COc1cccc(NC(=O)CCC2CCN(C(=O)Cc3cccc(F)c3)CC2)c1	-16%
CCCCN(CC)C(=S)Nc1ccc2nc(N3CCN(C)CC3)cc(C)c2c1	-3%
CCOC(=O)C1=C(C)NC(=O)NC1c1ccc(C)o1 (stereo not given)	-5%
COCCCNCCCCOc1ccccc1-c1ccccc1	14%
CC(=O)C1=C(C)OC(N)=C(C#N)C1c1cc2cccc(C)c2nc1Cl (stereo not given)	-3%
Cc1ccc(OCC(=O)Nc2ccccc2C(N)=O)cc1	-5%

2 entries picked at random from the list so far, as already listed:
SMILES	VDR inh
CCCNC(=O)c1nnsc1S(=O)c1ccc(Cl)cc1 (stereo not given)	?
CCCCN(CC)C(=S)Nc1ccc2nc(N3CCN(C)CC3)cc(C)c2c1	-3%

(continued)
SMILES	VDR inh
Cc1ccc(NC(=O)Cn2c(=O)c(C)nc3ccccc32)cc1	-6%
Cc1nc(N)sc1-c1csc(Nc2ccc(Cl)cn2)n1	-23%
COc1ccc(S(=O)(=O)NNC(=O)c2cc3ccccc3o2)cc1	-22%
Cc1cnc(CNc2ncncc2-c2ccccc2CN(C)C)cn1	-10%
Cc1ccc2oc(Nc3nc(-c4ccccc4)cc(=O)[nH]3)nc2c1	7%

Screens (PubChem)
